Compound activity as filed in PubChem BioAssay.
Rango-impB inh – qHTS Assay for Inhibitors of Rango (Ran-regulated importin-beta cargo) - Importin beta complex formation; Importin subunit beta-1 (Homo sapiens), Q14974; Rango CFP/YFP FRET sensor + importin beta, 45 min; Potency, µM (doses to about 92.2 µM), without a hit: at the highest dose inhibition of complex formation; 340,000 tested, 0.031% active; AID 540263, 2011; active = rising FRET ratio curve, often small or poorly fitted; inconclusive = mostly compound fluorescence or quenching in the first reads; inactive = flat curves in all reads;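 further: potency means the concentration at half of the fitted maximal effect; 0% = DMSO wells and 100% = buffer wells lacking importin beta; nearly all actives have a fitted effect of over 15% in size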
Target sequence (Q14974 whole entry, looked up): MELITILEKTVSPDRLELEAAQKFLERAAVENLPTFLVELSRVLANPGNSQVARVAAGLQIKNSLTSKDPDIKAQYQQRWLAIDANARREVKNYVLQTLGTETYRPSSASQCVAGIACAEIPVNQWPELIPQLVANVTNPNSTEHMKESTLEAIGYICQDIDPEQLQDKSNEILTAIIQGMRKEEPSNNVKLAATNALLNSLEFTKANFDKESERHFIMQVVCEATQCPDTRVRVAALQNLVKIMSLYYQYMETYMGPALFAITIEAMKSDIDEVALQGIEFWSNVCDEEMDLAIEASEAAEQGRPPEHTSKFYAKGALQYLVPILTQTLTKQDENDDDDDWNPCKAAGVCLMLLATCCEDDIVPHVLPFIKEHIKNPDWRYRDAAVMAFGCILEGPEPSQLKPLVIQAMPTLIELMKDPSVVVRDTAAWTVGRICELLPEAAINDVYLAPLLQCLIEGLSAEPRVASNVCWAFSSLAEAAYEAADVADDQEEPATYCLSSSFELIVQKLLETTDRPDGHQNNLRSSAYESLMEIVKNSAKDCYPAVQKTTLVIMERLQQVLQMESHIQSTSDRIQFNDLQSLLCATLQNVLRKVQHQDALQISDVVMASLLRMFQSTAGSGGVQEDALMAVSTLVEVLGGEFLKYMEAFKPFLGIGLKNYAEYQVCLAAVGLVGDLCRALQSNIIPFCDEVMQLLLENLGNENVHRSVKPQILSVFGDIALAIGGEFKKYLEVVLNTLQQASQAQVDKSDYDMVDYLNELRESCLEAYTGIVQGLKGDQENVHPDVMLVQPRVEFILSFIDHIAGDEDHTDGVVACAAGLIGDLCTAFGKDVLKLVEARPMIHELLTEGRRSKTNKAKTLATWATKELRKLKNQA
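FRET biosensor Rango (snurportin 1 IBB between N-terminal EYFP and C-terminal Cerulean), 50 nM in PBS/1 mM DTT/0.02% Tween-20/0.1% BSA, preincubated 5 min RT with compound; 0.125 microM importin beta added, 45 min RT, CFP/YFP FRET ratio read.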
miR-21 reporter – qHTS Assay for Modulators of miRNAs and/orActivators of miR-21 | 340,000 tested, under 10 active | Potency, µM (titrated, usually from 38.3 µM), without a hit: at the top dose reporter change, positive = more light | AID 2288, 2010 | HeLa miR-21 FLuc reporter, luciferase, 48 h; active = well fitted rising curve with a large enough effect; inconclusive = small, poorly fitted or top-dose-only effect; inactive = no such curve, though single readings can be large or run the other way;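 further: % of control where 0% means no effect; miR-21 action dims this reporter so a rising signal means less miR-21 action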
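HeLa miR-21-FLuc reporter line, endogenous miR-21; 2000 cells/well in DMEM/10% FBS; compound titration up to ~40uM final, 48 h, 37 degree Celsius; luciferase detection reagent, 15 min lysis, CCD luminescence.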
Rango dissoc inh – qHTS Assay for Inhibitors of RanGTP induced Rango (Ran-regulated importin-beta cargo) - Importin beta complex dissociation. AID 540253, 2011. Potency, µM (series often up to 46.1 µM), for the others: top-dose activity change, negative = inhibition. Biochemical FRET Rango-importin beta, RanGTP-induced dissociation. 340,000 tested, 0.071% active. Snurportin-1 (Homo sapiens) + GTP-binding nuclear protein Ran (Homo sapiens) + Importin …; active means falling FRET ratio curve, often poorly fitted, with flat reads before Ran was added; inconclusive means other falling curves, or compound fluorescence or quenching; inactive means flat or rising ratio curve;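 further: potency means the concentration at half of the fitted maximal effect; % of control where 0% means no effect; nearly all actives have a fitted effect of over 45% in size; -100% = wells without RanGTP and RCC1; the record marks most hits as doubtful in a second field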
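Rango (0.1 uM)–importin beta (0.25 uM) complex; RanGTP-RCC1 trigger; 45 min RT; CFP/YFP FRET read.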
GLA inh pH 4.5 – qHTS Assay for Inhibitors of Human alpha-Galactosidase at pH 4.5; Alpha-galactosidase A (Homo sapiens), P06280; purified enzyme, 4-MU-alpha-Gal fluorescence, pH 4.5; activity change, negative = inhibition, % at 105 µM; 230,000 tested, under 10 active; inconclusive = small, poorly fitted or top-dose-only inhibition, or a rising curve; inactive = flat fitted curve, though single readings scatter; no compound was filed as active;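 further: 0% = full activity with enzyme and -100% = basal without enzyme; dose as in the result columns while the protocol names 77 µM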
Starred values were filed as active, the others as inactive; ? = inconclusive; . = not tested or not shown; & = joins results of further samples; [ ] = remark or other dose.

Values run as follows: Rango-impB inh	miR-21 reporter	Rango dissoc inh	GLA inh pH 4.5
COc1ccccc1NC(=O)Nc1nnc(C(C)C)s1
→ 1.3%	-80%	0%	9
COc1ccccc1NC(=O)COc1cc(C)nc(C(C)C)n1
→ -4.4%	-2%	-5%	-3
CN(C(=O)CSc1nc(N)cc(N)n1)C1CCS(=O)(=O)C1 (centres undefined)
→ -1.2%	1%	4%	.
NC(=O)C1=C[C@@H](c2ccc(Br)cc2)C[C@@H](OCCCCO)O1
→ 0.8%	-26%	10%	-6
Cc1nnc(SCC(=O)N(C)c2c(N)n(Cc3ccccc3)c(=O)[nH]c2=O)n1Cc1ccccc1
→ 6.6%	-2%	-6%	1
COc1ccccc1CNC(=O)c1cn(C)c2ccc(S(=O)(=O)N3CCCCC3)cc2c1=O
→ .	5%	.	6
CC(NC(=O)c1cccs1)C1CCCO1 (centres undefined)
→ -6.6%	2%	-9%	.
Cc1ccc(NC(=O)N2CCCC2C(=O)NCC2CCCCC2)cc1 (centres undefined)
→ -1.7%	1%	-14%	.
Nc1ccc(SC(F)(F)F)cc1C(=O)c1ccccc1
→ -1.8%	-15%	5%	-11
N#CCC(=O)N/N=C/c1cccc(Oc2ccccc2)c1
→ -5.6%	13%	-12%	9
O=C(O)CCC(=O)N1CCN(c2ncccc2C(F)(F)F)CC1
→ 1.7%	4%	36%	-1
Cn1nc(-c2ccccc2)cc1NC(=O)C1CCCCC1
→ 0.2%	-38%	-3%	1
CC(=O)Nc1ccc(NC(=O)C(C)OC(=O)CN(C)S(=O)(=O)c2ccc(Cl)cc2)cc1 (centres undefined)
→ -2.6%	-4%	-3%	6
CC(Oc1ccc(Cl)cc1Cl)C(=O)N/N=C1\CCCc2ccccc21 (centres undefined)
→ -0.2%	-1%	32%	9
CC1CCN(C(=S)SCc2nc(N)nc(Nc3ccccc3)n2)CC1
→ 2.2%	-21%	-6%	-12
CCCCCCCCn1c(=O)c(C(=O)OC)c(N)c2ccccc21
→ 0.1%	1%	31%	-3
O=C(c1cc2ncc(Br)cn2n1)N1CCN(C(=O)c2ccco2)CC1
→ 3.3%	-3%	6%	1
O=C(NNC(=S)NC(=O)c1ccccc1[N+](=O)[O-])c1ccccc1O
→ 4.7%	13%	-19%	2
O=C(c1ccco1)N1CCN(C(=O)c2cc(=O)[nH]c3ccccc23)CC1
→ -2.1%	.	-17%	.
COc1ccc(C2Nc3ccccc3C(=O)N2C2CCCCC2)cc1 (centres undefined)
→ 2.7%	-16%	2%	1

4 entries from above, as labelled records.
> CN(C(=O)CSc1nc(N)cc(N)n1)C1CCS(=O)(=O)C1 (centres undefined)
  Rango-impB inh = -1.2%
  miR-21 reporter = 1%
  Rango dissoc inh = 4%
  GLA inh pH 4.5 = .
> NC(=O)C1=C[C@@H](c2ccc(Br)cc2)C[C@@H](OCCCCO)O1
  Rango-impB inh = 0.8%
  miR-21 reporter = -26%
  Rango dissoc inh = 10%
  GLA inh pH 4.5 = -6
> Cc1nnc(SCC(=O)N(C)c2c(N)n(Cc3ccccc3)c(=O)[nH]c2=O)n1Cc1ccccc1
  Rango-impB inh = 6.6%
  miR-21 reporter = -2%
  Rango dissoc inh = -6%
  GLA inh pH 4.5 = 1
> COc1ccccc1CNC(=O)c1cn(C)c2ccc(S(=O)(=O)N3CCCCC3)cc2c1=O
  Rango-impB inh = .
  miR-21 reporter = 5%
  Rango dissoc inh = .
  GLA inh pH 4.5 = 6

Other records:
Values run as follows: Rango-impB inh	miR-21 reporter	Rango dissoc inh	GLA inh pH 4.5
Cc1cc(C)n2nc(CC(=O)NNC(=O)COc3cccc(C)c3C)nc2n1
→ 0.0%	-6%	28%	.
CCN(c1ccccc1)S(=O)(=O)c1ccc(OCC(F)(F)F)c(NC(=O)c2ccc(=O)[nH]c2)c1
→ -1.2%	.	1%	.
Cc1ccc2[nH]c(=O)c(CN(CC3COCCO3)C(=O)Nc3ccccc3F)cc2c1 (centres undefined)
→ -0.4%	5%	1%	5
O=C(CN1C(=O)COc2ccccc21)N1CCCc2ccccc21
→ 1.6%	-7%	0%	5
Cc1ccc(S(C)(=O)=O)cc1S(=O)(=O)Nc1cccc(Cl)c1
→ 0.7%	-9%	2%	-8
CCOP(=O)(OCC)C(Nc1ccc(C)cc1)c1ccco1 (centres undefined)
→ 9.8%	-2%	-1%	-2
CN(CCC1CCOCC1)C(=O)CC1C(=O)NCCN1CC1CCCCC1 (centres undefined)
→ -5.2%	-1%	1%	10
CCOC(=O)C1CN(S(=O)(=O)c2ccccc2)CCN1S(=O)(=O)c1ccccc1 (centres undefined)
→ 3.7%	-4%	-4%	3
O=C(CN(c1cccc([N+](=O)[O-])c1)S(=O)(=O)c1ccccc1)N1CCCCC1
→ -2.1%	-8%	2%	.
O=C(Nc1c(F)cc(F)cc1Br)C1CCCO1 (centres undefined)
→ 3.1%	-5%	-10%	0
O=S(=O)(NCCc1ccccc1)c1ccccc1
→ 1.5%	-11%	25%	-7
c1c(C2CCCCC2)n[nH]c1CN1CCCCC1
→ 5.0%	-4%	3%	-6
CCC(=O)N1c2ccccc2NC2=C(C(=O)CCC2)C1c1cccnc1 (centres undefined)
→ -0.3%	-7%	24%	11
COCCNC(=O)CCc1c(C)nc2nc(-c3cc(OC)cc(OC)c3)nn2c1C
→ -3.2%	-1%	-5%	1[21.1 µM]
COc1ccccc1NS(=O)(=O)c1ccc(Cl)c(NC(=S)NC(=O)C2CCCC2)c1
→ -1.9%	6%	17%	-5
COc1cc2sc(C)nc2c2ccccc12
→ 2.1%	-9%	-4%	.
Cc1ccc(CN2CCN(/N=C/c3ccco3)CC2)c(C)c1
→ 0.8%	-14%	17%	-15
COC(=O)C1=C(C)N=C2SC(C)C(=O)N2C1c1cccs1 (centres undefined)
→ -0.6%	-3%	13%	-1
O=C(NCCc1c[nH]c2ccccc12)c1ccc(-n2cnnn2)cc1
→ 0.4%	-14%	-29%	-19
Cc1c(Br)c([N+](=O)[O-])nn1CCCC(=O)Nc1sc2c(c1C#N)CCC2
→ 0.2%	-5%	-10%	-6

Values run as follows: Rango-impB inh	miR-21 reporter	Rango dissoc inh	GLA inh pH 4.5
COC(=O)Nc1sc2nc(C)cc(C)c2c1-n1cccc1
→ -1.1%	4%	-8%	-5
OCCC1CN(Cc2ccccc2-c2ccco2)CCN1Cc1ccsc1 (centres undefined)
→ 3.4%	-3%	7%	0
Cc1cccc(CCNS(=O)(=O)c2cc3c(cc2C)NC(=O)CO3)c1
→ -0.2%	6%	-7%	.
Cc1cc(SCC(=O)c2cc(C)n(C)c2C)nc2ccccc12
→ 3.6%	4%	1%	1
C/C(=N/NC(=O)CNC(=O)C1COc2ccccc2O1)c1cccc(O)c1 (centres undefined)
→ 6.8%	-1%	31%	0
Cc1nccn1S(=O)(=O)c1ccc(Br)cc1Br
→ -1.6%	-3%	-1%	1
CC1=C(C(=O)OCC2CCCO2)C(c2ccc(C)o2)C2=C(CC(c3ccc(F)cc3)CC2=O)N1 (centres undefined)
→ 5.0%	6%	-18%	-8
CCN(CC)c1ccc(-c2sc(Nc3ccccc3)n[n+]2-c2ccc(F)cc2)cc1
→ ?	6%	?	.
Oc1ccc2ccccc2c1C1Nc2cccc3cccc(c23)N1
→ -3.9%	10%	-2%	2
COc1ccc(-c2[nH]nc3c2C(c2ccncc2)C(C#N)=C(N)O3)cc1 (centres undefined)
→ 0.3%	-2%	0%	8
Cn1c(N2CCCCC2)cc(=O)n(C)c1=O
→ 0.3%	-7%	-6%	-2
Nc1nnc(-c2cn(-c3ccccc3)nc2-c2ccccc2)o1
→ 3.7%	-19%	5%	2
CSc1nc(NC(C)(C)C)nc(N2CCOCC2)n1
→ -0.5%	-7%	-4%	0
CC(C)(Cc1ccc(O)cc1)NC(=O)CC(=O)N/N=C/c1ccc(Cl)cc1
→ -3.4%	16%	-7%	.
Cc1cc(C(=O)CS(=O)(=O)c2ccccc2)cc(C)c1O
→ -1.8%	-46%	-9%	.
COc1ccc(CCNC(=O)COc2ccc(S(=O)(=O)N3CCOCC3)cc2C)cc1
→ 0.2%	13%	1%	.
CC(=O)c1cccc(NC(=O)COC(=O)COc2ccccc2C)c1
→ -1.4%	5%	-8%	2
COC(=O)c1c(C)nn(-c2ccccc2)c1N
→ 0.1%	-20%	4%	7
CCOC(=O)c1c(C)c(/C=N/Nc2ccccc2)n(C)c1C
→ -4.5%	-33%	-8%	0
CC(=O)Nc1ccc(NC(=O)C(C)OC(=O)CSc2ccc(Br)cc2C)cc1 (centres undefined)
→ -1.1%	0%	15%	.

Values run as follows: Rango-impB inh	miR-21 reporter	Rango dissoc inh	GLA inh pH 4.5
Cc1ccccc1N1C(=O)c2cc(S(N)(=O)=O)c(Cl)cc2NC1C (centres undefined)
→ -1.1%	.	20%	6&6
CC(C)CC(NC(=O)c1cccs1)c1nnc(SCc2ccc(Cl)c(Cl)c2)n1C (centres undefined)
→ ?	16%	-2%	-14
c1ccc(C2=NN(c3ccccc3)CC2)cc1
→ ?	-79%	-30%	?
O=C(O)C[C@H]1c2cc(F)ccc2S(=O)(=O)N1Cc1ccccc1
→ ?	.	-8%	.
O=C(COc1ccc2ccccc2c1)NCCn1ccc2ccccc21
→ -1.5%	-13%	-5%	-4
COc1ccc(S(=O)(=O)N2CCN(C(=O)c3cc(C4CC4)nn3-c3ccccc3)CC2)cc1OC
→ 1.0%	.	17%	.
O=[N+]([O-])c1cccc(-c2nnc(-c3ccccc3F)o2)c1
→ -0.2%	-51%	13%	.
CC(C)c1cc(C(=O)N/N=C/c2ccoc2)cs1
→ -1.8%	-22%	-5%	.
CCOc1cc(S(=O)(=O)NCc2cccs2)ccc1Cl
→ -4.5%	-6%	14%	-6
CCOc1ccc2[nH]c(=O)c(CN(Cc3nnnn3Cc3ccco3)C3CCCCC3)cc2c1
→ -2.4%	-10%	-19%	-3
CCOC(=O)COc1ccc(S(=O)(=O)N2CCN(C(=O)OCC)CC2)cc1
→ 2.1%	-2%	-1%	-2
Cc1ccc2c(c1)N(CC(=O)N1CCN(c3ccccc3)CC1)C(=O)C(C)O2 (centres undefined)
→ 2.3%	0%	-7%	.
COc1cccc(OC(C)c2ccnc3nc(/N=C/N(C)C)nn23)c1 (centres undefined)
→ 2.0%	-19%	-5%	8
c1ccc(CCn2nnnc2CN2CCCc3ccccc32)cc1
→ ?	-7%	-21%	-6
O=C(CCN1C(=O)/C(=C/c2ccc(F)cc2)SC1=S)NC1C=CS(=O)(=O)C1 (centres undefined)
→ -2.6%	0%	-15%	.
CC(C)CN(CCOc1cccc(N2C(=O)C3=C(CCCC3)C2=O)c1)CC(C)C
→ 1.2%	0%	10%	-3
CCOC(=O)c1ccc(Nc2cc(C)nc(N3CCOCC3)n2)cc1
→ 0.1%	0%	-9%	6
CCCCC(=O)NC(=S)NNS(=O)(=O)c1ccccc1
→ -0.5%	0%	-11%	4
CC(=O)N1CCSc2ccc(S(=O)(=O)NCCc3cccc(C)c3)cc21
→ -3.0%	18%	0%	.
COc1ccc(/C=N/Nc2nc(C)cc(-c3ccccc3)n2)cc1OC
→ -1.4%	4%	20%	.
O=C(COC(=O)CCNS(=O)(=O)c1ccc2c(c1)OCCO2)NC1CCCc2ccccc21 (centres undefined)
→ -0.2%	-4%	-14%	10
COc1ccc(-c2nn(C)c(=O)c3ccccc23)cc1NC(=O)Cn1nc(C)c2ccccc2c1=O
→ -2.0%	9%	-3%	5
O=S(=O)(Cc1cc(Cl)nc(-c2cccnc2)n1)c1ccccc1
→ 0.5%	0%	3%	.

Exported as a markdown table: entries from further up
| Compound | Rango-impB inh | miR-21 reporter | Rango dissoc inh | GLA inh pH 4.5 |
| --- | --- | --- | --- | --- |
| Cn1nc(-c2ccccc2)cc1NC(=O)C1CCCCC1 | 0.2% | -38% | -3% | 1 |
| CCN(c1ccccc1)S(=O)(=O)c1ccc(OCC(F)(F)F)c(NC(=O)c2ccc(=O)[nH]c2)c1 | -1.2% | . | 1% | . |
| Cc1ccc(NC(=O)N2CCCC2C(=O)NCC2CCCCC2)cc1 (centres undefined) | -1.7% | 1% | -14% | . |

An excerpt; rates above refer to the full screens.
